Rango dissoc inh – inhibition of RanGTP-driven Rango-importin beta dissociation | O95149+P62826 | Biochemical FRET Rango-importin beta, RanGTP-induced dissociation | Potency, µM (series often up to 46.1 µM), for the others: at the top dose activity change, negative = inhibition | hit rate 0.071% among 340,000; active means falling FRET ratio curve, often poorly fitted, with flat reads before Ran was added; inconclusive means other falling curves, or compound fluorescence or quenching; inactive means flat or rising ratio curve;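 further: potency means the concentration at half of the fitted maximal effect; % of control where 0% means no effect; nearly all actives have a fitted effect of over 45% in size; -100% = wells without RanGTP and RCC1; the record marks most hits as doubtful in a second field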
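Recombinant Rango FRET biosensor (EYFP–snurportin 1 IBB–cerulean CFP10) at 0.1 uM premixed with 0.25 uM importin beta in PBS, 1 mM DTT, 0.02% Tween-20, 0.1% BSA. Compound added 5 min; RanGTP-RCC1 (0.6 uM Ran, 2 mM GTP, 0.2 uM RCC1) then triggers release, read at 45 min.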
GLA inh pH 4.5 – alpha-galactosidase A (human) inhibition, pH 4.5; P06280; purified enzyme, 4-MU-alpha-Gal fluorescence, pH 4.5; activity change, negative = inhibition, % at 105 µM; 230,000 tested, under 10 active; inconclusive = small, poorly fitted or top-dose-only inhibition, or a rising curve; inactive = flat fitted curve, though single readings scatter; no compound was filed as active;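 further: 0% = full activity with enzyme and -100% = basal without enzyme; dose as in the result columns while the protocol names 77 µM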
miR-21 reporter – raises the signal of a miR-21 reporter; HeLa miR-21 FLuc reporter, luciferase, 48 h; Potency, µM (top dose mostly 38.3 µM), for inactives: at the highest dose reporter change, positive = more light; 340,000 tested, under 10 active; AID 2288; active = well fitted rising curve with a large enough effect; inconclusive = small, poorly fitted or top-dose-only effect; inactive = no such curve, though single readings can be large or run the other way;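 further: % of control where 0% means no effect; miR-21 action dims this reporter so a rising signal means less miR-21 action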
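Compounds were titrated across several concentrations (up to approximately 40 uM) and incubated 48 hours with HeLa miR-21-FLuc reporter cells (miR-21 target sequence downstream of FLuc, endogenous miR-21). Readout was firefly luciferase luminescence after lytic detection reagent.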
Rango-impB inh – inhibitors of Rango-importin beta complex formation. Q14974. Rango CFP/YFP FRET sensor + importin beta, 45 min. Potency, µM (highest dose often 92.2 µM), without a hit: top-dose inhibition of complex formation. hit rate 0.031% among 340,000; active = rising FRET ratio curve, often small or poorly fitted; inconclusive = mostly compound fluorescence or quenching in the first reads; inactive = flat curves in all reads;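 further: potency means the concentration at half of the fitted maximal effect; 0% = DMSO wells and 100% = buffer wells lacking importin beta; nearly all actives have a fitted effect of over 15% in size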
Target sequence (Q14974 whole entry, looked up): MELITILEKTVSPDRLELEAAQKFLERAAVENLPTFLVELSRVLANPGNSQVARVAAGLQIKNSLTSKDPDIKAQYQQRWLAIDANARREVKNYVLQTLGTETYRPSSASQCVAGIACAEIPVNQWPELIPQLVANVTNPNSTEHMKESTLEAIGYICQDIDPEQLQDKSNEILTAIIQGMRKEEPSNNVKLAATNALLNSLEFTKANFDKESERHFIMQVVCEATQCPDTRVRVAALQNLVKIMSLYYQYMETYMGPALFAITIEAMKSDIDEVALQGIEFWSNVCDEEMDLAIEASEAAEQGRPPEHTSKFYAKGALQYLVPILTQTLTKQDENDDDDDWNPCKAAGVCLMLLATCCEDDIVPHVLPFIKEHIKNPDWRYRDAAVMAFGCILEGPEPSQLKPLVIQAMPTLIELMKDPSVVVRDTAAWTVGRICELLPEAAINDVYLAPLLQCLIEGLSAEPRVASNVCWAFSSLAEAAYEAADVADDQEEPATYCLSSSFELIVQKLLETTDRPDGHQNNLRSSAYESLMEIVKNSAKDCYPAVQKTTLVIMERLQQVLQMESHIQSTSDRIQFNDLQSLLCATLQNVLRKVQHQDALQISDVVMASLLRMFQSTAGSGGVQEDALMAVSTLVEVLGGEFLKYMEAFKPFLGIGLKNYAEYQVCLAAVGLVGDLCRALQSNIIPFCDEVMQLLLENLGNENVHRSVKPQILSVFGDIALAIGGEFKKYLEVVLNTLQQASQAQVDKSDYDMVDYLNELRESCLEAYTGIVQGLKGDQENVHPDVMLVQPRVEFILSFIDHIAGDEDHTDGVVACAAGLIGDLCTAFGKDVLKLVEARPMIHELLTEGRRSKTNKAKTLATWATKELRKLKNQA
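FRET biosensor Rango (snurportin 1 IBB between N-terminal EYFP and C-terminal Cerulean), 50 nM in PBS/1 mM DTT/0.02% Tween-20/0.1% BSA, preincubated 5 min RT with compound; 0.125 microM importin beta added, 45 min RT, CFP/YFP FRET ratio read.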
Active calls of the source: *; ? = inconclusive; / = no result given; & = joins results of further samples. A portion of the library (hit frequency here may not be typical).

SMILES	Rango dissoc inh	GLA inh pH 4.5	miR-21 reporter	Rango-impB inh
O=C(Nc1cccc2ccccc12)c1cccc([N+](=O)[O-])c1	-7.8%	/	-3.8%	?
CCn1c(SCC(=O)Nc2cc3oc4ccccc4c3cc2OC)nnc1-c1cccs1	-5.8%	-3.9	1.9%	0.5%
COc1ccc(Cc2nc3ccc(C(=O)N(C)CCn4ccnc4)cc3o2)cc1OC	-3.2%	/	-33.6%	-0.4%
C/C(=N\NS(=O)(=O)c1ccc(C)c([N+](=O)[O-])c1)c1cc2ccccc2o1	-1.3%	-2.9	-5.6%	2.8%
O=C(Cc1ccc(Cl)c(Cl)c1)Nc1ccc(SC(F)F)cc1	-0.5%	-10.2	24.1%	-0.1%
OCCN1CCN(C(=S)Nc2cccc(C(F)(F)F)c2)CC1	-2.4%&0.3%	1.9	-4.7%	-0.1%&0.1%
O=C(Cn1cccc1C(=O)c1ccccc1)NCCC1=CCCCC1	5.5%	2.2	0.2%	0.0%
CC(Oc1cccc(Cl)c1)C(=O)Nc1cc(Cl)ccc1N1CCOCC1 (stereo not drawn)	10.6%	/	/	0.0%
CCC1(c2ccc(F)cc2)NC(=O)N(CC(=O)Nc2ccccc2C)C1=O (stereo not drawn)	-3.7%	/	-3.0%	4.6%
Cc1ccc(OCC(=O)Nc2ccc(S(=O)(=O)Nc3onc(C)c3C)cc2)cc1	-19.6%	5.7	-3.7%	-4.3%
Cc1ccc(OCCCC(=O)Nc2ccc(S(=O)(=O)Nc3cc(C)nc(C)n3)cc2)cc1	-7.0%	/	0.5%	0.8%
Cc1cc(C)n(C(=O)/C(C#N)=N/Nc2cc(Cl)cc(Cl)c2)n1	-5.6%	-9.6	?	?
COc1ccc(-c2ccc3nnc(SCC(=O)Nc4ccc(NC(C)=O)cc4)n3n2)cc1	1.8%	/	/	2.3%
Clc1ccc2c(c1)nc1n2CCCC1	-8.2%	4.5	-19.4%	4.7%
O=S(=O)(Nc1ccccc1O)c1ccc(-c2ccccc2)cc1	26.9%	1.6	5.1%	-5.3%
CC1(C)C(=O)Nc2ccccc2N1C(=O)COC(=O)CSc1ccc(Cl)cc1	7.2%	/	/	0.1%
O=C(Nc1nncs1)C1CC(=O)N(CCc2ccc(F)cc2)C1 (stereo not drawn)	-7.5%	/	0.0%	-1.9%
CC1CCCC(NC(=O)C2c3ccccc3C(=O)N2Cc2cccs2)C1C (stereo not drawn)	-20.4%	-0.3	-9.5%	1.5%
CCCCOC(=O)/C=C/c1ccc(OC(=O)OC)c(OC(=O)OC)c1	?	-16.3	-3.6%	?
Cc1ccc(-c2c3c(=O)n(C)c(=O)n(C)c3cn2N2CCOCC2)cc1	3.2%	-8.2	-18.2%	-0.9%
Cc1ccc(C(N)=O)cc1S(=O)(=O)Nc1cccc(C)c1C	1.3%	-5.1	-2.7%	-2.1%
COc1ccc(-n2c(CN3CCN(Cc4ccccc4)CC3)nc3ccc([N+](=O)[O-])cc3c2=O)c(OC)c1	-11.4%	1.2	4.5%	1.3%
Cc1c(Cl)cccc1NC(=O)CNC(=O)c1ccc(F)cc1	3.3%	0.2	-3.0%	0.0%
Cc1ccc(S(=O)(=O)N2[C@@H](c3ccc(Br)cc3)C(C(=O)O)=CC[C@H]2c2ccc(Cl)cc2)cc1	12.8%	/	/	1.1%
C#CCSc1nc(=O)c2cccnc2n1-c1ccc(C)cc1	1.5%	3.8	1.3%	0.8%
CCOc1ccc(-c2nnc(SCC(=O)O)n2Cc2ccccc2)cc1	4.3%	/	-6.0%	-1.5%
CCCNC(=O)CCn1cc(-c2ccc(OC)cc2)nc1-c1ccncc1	4.1%	/	-1.8%	-0.3%
Cc1cccc(C)c1NC(=O)CNc1ccccc1	28.4%	1.3	-5.9%	2.6%
CCN(CC(=O)Nc1ccc(OC)cc1)C(=O)Cc1ccsc1	-10.7%	/	/	-1.6%
O=C(NNC(=O)C12CC3CC(CC(C3)C1)C2)c1csc(N2CCOCC2)n1	-17.1%	/	/	2.1%
COc1cc(Cl)ccc1OCc1cc(C(=O)N(C)CCc2cnn(C)c2)no1	-5.4%	/	-66.4%	-2.8%
CCOc1ccc(C(C)=O)cc1N1C(=O)C2C3C=CC(C3=C(C)C)C2C1=O (stereo not drawn)	2.9%	0.9	-1.5%	-3.1%
O=S(=O)(c1ccc(F)cc1)N1CCN(S(=O)(=O)c2cccs2)CC1	2.0%	/	2.0%	2.5%
O=C(O)CSCC(=O)N1CCc2c([nH]c3ccccc23)C1C(F)(F)F (stereo not drawn)	-11.5%	/	-0.5%	4.3%
CCN(C(=O)COC(=O)c1cc(C)n(-c2ccc(F)cc2)c1C)C1CCS(=O)(=O)C1 (stereo not drawn)	32.3%	8.4	-5.6%	-2.9%
O=C(Nc1ccc(S(=O)(=O)Nc2ccccc2)cc1)c1ccc(CN2CCOCC2)cc1	?	4.3	?	1.0%
Cc1cc(C)c(S(=O)(=O)N2CCN(C(=O)c3cc(=O)[nH]c4ccccc34)CC2)c(C)c1	9.4%	/	/	-3.1%
O=C(c1ccco1)N1CCN(c2ncnc3scc(-c4ccccc4)c23)CC1	12.0%	2.0	2.8%	-1.3%
CCC(C(=O)NCCC(C)C)N(Cc1ccccc1Cl)C(=O)c1snc(C(N)=O)c1N (stereo not drawn)	-8.1%	/	8.7%	-0.4%
CC1CCC(NC(=O)CCS(=O)(=O)c2ccc3c(c2)NC(=O)C(C)S3)CC1 (stereo not drawn)	7.4%	/	4.0%	1.6%
C/C(=N/NC(=O)c1ccc(C)s1)c1cccc(NC(=O)c2ccoc2C)c1	-14.8%	/	-4.2%	0.5%
O=C(CSCc1ccc(F)cc1)NCc1ccco1	2.0%	3.3	-18.0%	?
O=C1OCCC1Sc1nc(-c2ccccc2)cs1 (stereo not drawn)	0.7%	0.8	0.7%	-7.0%
O=S(=O)(c1ccc(OCC(O)CN2CCCCC2)cc1)N1CCOCC1 (stereo not drawn)	-18.0%	3.3	-4.1%	0.6%
N#Cc1c(Nc2ccccc2)sc(C(=O)c2ccc(F)cc2)c1N	-3.3%	1.0	-12.0%	-1.7%
CC(C)Nc1nc(SC(C)C(=O)Nc2ccccc2)nc(N(C)C)n1 (stereo not drawn)	3.2%	1.4	-0.5%	-3.5%
O=C(Cc1cccc2ccccc12)Nc1cc(C(=O)O)cc(C(=O)O)c1	-11.9%	/	0.1%	0.8%
COc1ccc(N2CCN(S(=O)(=O)CCNC(=O)/C=C/c3ccccc3)CC2)cc1	-8.1%	/	/	?
C[C@@H]1CN([C@@H](C)CO)C(=O)c2cc(NS(C)(=O)=O)ccc2O[C@@H]1CN(C)S(=O)(=O)c1ccccc1	-4.9%	/	/	-1.2%
O=C(CC(c1ccccc1)c1cc(Cl)ccc1O)NCCCN1CCOCC1 (stereo not drawn)	-17.2%	/	6.1%	-1.6%
C=C(C)[C@H]1CC=C(C)/C(=N/NC(=O)CNc2ccccc2OC)C1	?	3.1	-5.7%	-0.8%
Cc1ccc(S(=O)(=O)CCc2nc3ccccc3[nH]2)cc1C	0.6%	4.6	7.9%	-0.3%
COc1ccccc1/C=C/C(=O)OCC(=O)NC(=O)NC1CCCC1	?	/	/	2.6%
C[C@]12CCC3c4ccc(O)cc4CCC3C1CC/C2=N\N (stereo partly drawn)	-15.3%	/	/	-1.0%
Cc1csc(SCC(=O)Nc2cc(S(=O)(=O)N(C)C)ccc2C)n1	8.6%	/	/	-1.9%
Cc1ccc(S(=O)(=O)NCC(c2ccco2)N2CCOCC2)cc1 (stereo not drawn)	12.3%	-5.4	-0.8%&-1.3%	0.3%
Cc1ccc(CCNC(=O)c2cc(-c3ccncc3)nc3ccc(S(=O)(=O)N4CCOCC4)cc23)cc1	11.1%	/	-10.8%	-0.1%
CC(=O)N1c2ccc(S(=O)(=O)N(C)CC(=O)NCc3ccccc3)cc2CC1C (stereo not drawn)	8.4%	/	-4.8%	1.8%
O=c1ccsn1Cc1ccccc1	5.1%	-1.2	21.0%	-0.1%
O=C(CSc1nc2ccccc2[nH]1)Nc1ccc2c(c1)OCCO2	-2.9%	-3.2	-26.5%	0.3%

Overlap with the part before: two entries, followed by the next part.
SMILES	Rango dissoc inh	GLA inh pH 4.5	miR-21 reporter	Rango-impB inh
O=c1ccsn1Cc1ccccc1	5.1%	-1.2	21.0%	-0.1%
O=C(CSc1nc2ccccc2[nH]1)Nc1ccc2c(c1)OCCO2	-2.9%	-3.2	-26.5%	0.3%
COc1ccccc1NC(=O)/C(N=Nc1ccc(C)c(S(=O)(=O)Nc2ccccc2Cl)c1)=C(\C)O	-6.3%	/	/	5.3%
CC(C)(C)CCN1CCC(CN2CCNC(=O)C2=O)CC1	-7.7%	/	/	-0.7%
Cc1cc([N+](=O)[O-])c(NC2CCCCC2)c([N+](=O)[O-])c1	-6.0%	/	/	0.3%
CCC1CCCCN1S(=O)(=O)c1ccc(-n2cnnn2)c(C)c1 (stereo not drawn)	6.1%	/	8.5%	0.5%
Cc1ccc(N2CCN(C(=O)C3CCN(S(=O)(=O)c4cccc5nsnc45)CC3)CC2C)cc1 (stereo not drawn)	-18.7%	/	/	3.8%
COC(=O)C1=C(C)N(Cc2ccccc2)C(=O)N[C@H]1c1ccccc1	28.5%	-8.8&10.2	6.0%	3.7%
CCOC(=O)c1ccc(NC(=O)CSc2nnc(C3CC3)n2C)cc1	0.6%	2.8	22.9%	1.0%
Cc1ccc(/C=N/NC(=O)Cn2cncn2)cc1	2.3%	2.0	0.5%	0.2%
N#CCC(=O)N/N=C/c1ccc(OC2CSC2)cc1	6.1%	5.5	20.0%	-0.2%
CCN(Cc1ccccc1)C(=O)COC(=O)Cn1cnc2ccccc21	2.3%	-12.6	-0.7%	-1.0%
COc1cccc(N/C(N)=N/c2nc(C(F)(F)F)cc(=O)[nH]2)c1	27.6%	-0.7	-1.9%	-3.2%
COc1ccc(CN2C(=O)CN(C3CCCCCC3)C(=O)C2c2ccc(F)cc2)cc1 (stereo not drawn)	-5.2%	4.4	-0.3%	0.2%
O=C(CCS(=O)(=O)c1ccccc1)NNC(=O)COc1ccc(F)cc1	5.2%	/	/	-3.3%
C=CCOc1ccccc1C1C2=C(CC(C)(C)CC2=O)Nc2c1c(=O)n(C)c(=O)n2C (stereo not drawn)	?	5.7	-4.5%	?
CCCCN(C(=O)c1cc(S(=O)(=O)N2CCCCC2)ccc1Cl)c1c(N)n(CCC)c(=O)[nH]c1=O	-12.1%	/	/	0.9%
CC1CCN(S(=O)(=O)N2CCC(C(=O)NCc3cccs3)CC2)CC1	1.4%	-3.3	1.6%	0.5%
CCC(CO)NCc1ccc2c(c1)n(C)c(=O)n2C (stereo not drawn)	4.1%	4.3	-9.4%	1.9%
C/C=C/C(=O)Nc1nnc(-c2ccccc2C)s1	4.9%	4.9	-3.2%	-0.8%
COc1ccc(-c2cc(C(F)(F)F)n3nc(C(=O)N4CCOCC4)nc3n2)cc1	0.2%	-1.0	-10.6%	0.6%
C[N+]1(C)CC2([N+](=O)[O-])CC=C(Oc3ccccc3)C([N+](=O)[O-])(C2)C1 (stereo not drawn)	-8.9%	7.6	-6.8%	-3.2%
Cn1c(=O)c2c(nc(SCCN3CCCCC3)n2C)n(C)c1=O	-11.6%	-9.1	2.8%	0.1%
CCS(=O)(=O)c1nc(S(=O)(=O)c2ccc(C)cc2)c(N2CCN(CCO)CC2)s1	-10.3%	/	8.2%	1.3%
COc1ccc(CC(=O)OCc2cc(=O)n3cc(Br)ccc3n2)cc1OC	-13.1%	-13.1	-5.1%	-1.0%
O=C(NCc1ccc(Cl)cc1)c1n[nH]c([N+](=O)[O-])c1Cl	?	-4.3	-46.3%	0.2%
CCn1c(CSc2nc3ccccc3s2)nnc1SCC(=O)c1ccc(O)cc1O	-4.0%	-1.3	-11.0%	-2.1%
Cn1nnnc1SCC(=O)c1ccc(Br)s1	2.3%	5.7	-2.9%	0.4%
